Rango complex inh: prevents formation of the Rango-importin beta complex; Q14974; Rango CFP/YFP FRET sensor + importin beta, 45 min; Potency, µM (top dose mostly 92.2 µM), for the others: top-dose inhibition of complex formation; 0.031% of 340,000 active; active = rising FRET ratio curve, often small or poorly fitted; inconclusive = mostly compound fluorescence or quenching in the first reads; inactive = flat curves in all reads;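 also: potency is read from the fitted curve at half-maximal effect; 0% = DMSO wells and 100% = buffer wells lacking importin beta; nearly all actives have a fitted effect of over 15% in size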
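FRET biosensor (snurportin 1 IBB flanked by EYFP and cerulean), 50 nM, with compound 5 min, then 0.125 microM importin beta in PBS, 1 mM DTT, 0.02% Tween-20, 0.1% BSA. CFP/YFP ratio read after 45 min at room temperature; pre-read flags interference.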
Rango release inh: inhibitors of RanGTP-induced Rango-importin beta complex dissociation | O95149+P62826 | Biochemical FRET Rango-importin beta, RanGTP-induced dissociation | Potency, µM (doses to about 46.1 µM), inactives show at the top dose activity change, negative = inhibition | 0.071% of 340,000 active | AID 540253; active means falling FRET ratio curve, often poorly fitted, with flat reads before Ran was added; inconclusive means other falling curves, or compound fluorescence or quenching; inactive means flat or rising ratio curve;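 also: potency is read from the fitted curve at half-maximal effect; % of control where 0% means no effect; nearly all actives have a fitted effect of over 45% in size; -100% = wells without RanGTP and RCC1; the record marks most hits as doubtful in a second field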
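FRET read at 45 min, room temperature: inhibitors block the CFP/YFP signal rise when RanGTP (0.6 uM Ran, 2 mM GTP, 0.2 uM RCC1) frees Rango (0.1 uM) from importin beta (0.25 uM). Pre-read after 5 min compound exposure flags interference.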
GLA inh pH 4.5: blocks human alpha-galactosidase A at pH 4.5. P06280. purified enzyme, 4-MU-alpha-Gal fluorescence, pH 4.5. activity change, negative = inhibition, % at 105 µM. 230,000 tested, under 10 active; inconclusive = small, poorly fitted or top-dose-only inhibition, or a rising curve; inactive = flat fitted curve, though single readings scatter; no compound was filed as active;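 also: 0% = full activity with enzyme and -100% = basal without enzyme; dose as in the result columns while the protocol names 77 µM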
Target sequence (P06280 whole entry, looked up): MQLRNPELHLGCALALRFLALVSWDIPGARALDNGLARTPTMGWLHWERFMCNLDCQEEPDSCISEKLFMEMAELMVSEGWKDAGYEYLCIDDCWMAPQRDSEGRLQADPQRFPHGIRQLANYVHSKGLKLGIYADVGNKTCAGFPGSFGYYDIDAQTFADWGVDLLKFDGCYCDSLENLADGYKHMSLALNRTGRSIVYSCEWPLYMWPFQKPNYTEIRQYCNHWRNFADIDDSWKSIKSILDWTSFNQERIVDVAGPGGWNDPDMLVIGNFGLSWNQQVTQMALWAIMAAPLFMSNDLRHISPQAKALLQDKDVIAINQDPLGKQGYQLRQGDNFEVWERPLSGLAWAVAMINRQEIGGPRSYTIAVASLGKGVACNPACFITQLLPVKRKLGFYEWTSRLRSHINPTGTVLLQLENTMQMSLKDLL
miR-21 FLuc: miR-21 reporter, rising signal | HeLa miR-21 FLuc reporter, luciferase, 48 h | Potency, µM (top dose mostly 38.3 µM), for the others: at the highest dose reporter change, positive = more light | 340,000 tested, under 10 active; active = well fitted rising curve with a large enough effect; inconclusive = small, poorly fitted or top-dose-only effect; inactive = no such curve, though single readings can be large or run the other way;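 also: % of control where 0% means no effect; miR-21 action dims this reporter so a rising signal means less miR-21 action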
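HeLa miR-21-FLuc reporter line, endogenous miR-21; 2000 cells/well in DMEM/10% FBS; compound titration up to ~40uM final, 48 h, 37 degree Celsius; luciferase detection reagent, 15 min lysis, CCD luminescence.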
Numbers without * were called inactive; ? = inconclusive; / = not tested or not shown; & = joins results of further samples; [ ] = remark or other dose.

GLA inh pH 4.5,Rango release inh,miR-21 FLuc,Rango complex inh,Compound
-3,21%,-2%,0.6%,Cc1ccc(S(=O)(=O)NCCc2ccncc2)cc1
/,2%,/,1.0%,Cc1ccc(C)c(-c2nnc(NC(=O)COc3ccccc3)o2)c1
-2,-3%,4%,-0.3%,CCOC(=O)N1CCN(c2nc3ccc(C(=O)c4ccccc4)cc3n3cnnc23)CC1
/,13%,/,-2.6%,CCc1nnc(NC(=O)COC(=O)c2cc(OC)cc(OC)c2)s1
-1,-7%,1%,-0.4%,CC(=O)/C=C(\C)Nc1c(C)n(C)n(-c2ccccc2)c1=O
4,0%,-19%,-0.5%,COCc1nnc(NC(=O)CCC2CCCCC2)s1
4,15%,0%,3.3%,CC1(C(=O)NC2CCCCC2)CCC(=O)N1Cc1cccnc1 (stereo not drawn)
/,0%,-28%,-1.7%,COc1ccccc1OCCCC(=O)Nc1ccc2c(c1)OCCO2
/,-5%,/,-1.2%,O=C(Oc1nsnc1N1CCOCC1)N1CCCCC1
/,2%,/,?,CN(CC(=O)Nc1ccc(Cl)c(Cl)c1)C(=O)c1cccc2cccnc12

Five successive records from above, for reference:
GLA inh pH 4.5,Rango release inh,miR-21 FLuc,Rango complex inh,Compound
-3,21%,-2%,0.6%,Cc1ccc(S(=O)(=O)NCCc2ccncc2)cc1
/,2%,/,1.0%,Cc1ccc(C)c(-c2nnc(NC(=O)COc3ccccc3)o2)c1
-2,-3%,4%,-0.3%,CCOC(=O)N1CCN(c2nc3ccc(C(=O)c4ccccc4)cc3n3cnnc23)CC1
/,13%,/,-2.6%,CCc1nnc(NC(=O)COC(=O)c2cc(OC)cc(OC)c2)s1
-1,-7%,1%,-0.4%,CC(=O)/C=C(\C)Nc1c(C)n(C)n(-c2ccccc2)c1=O

Going on with the list.
GLA inh pH 4.5,Rango release inh,miR-21 FLuc,Rango complex inh,Compound
/,16%,/,2.6%,COc1ccccc1CCC(=O)OCC(=O)Nc1ccc2[nH]c(=O)[nH]c2c1
2,6%,-5%,1.3%,CCOC(=O)C1(CCc2ccccc2)CCN(C(=O)CCc2cnn(C)c2)CC1
1,-1%,1%,0.6%,Cc1ccc2[nH]c3c(=O)n(Cc4ccncc4)cnc3c2c1
/,-8%,29%,1.3%,O=C(Cc1ccc([N+](=O)[O-])cc1)N1CCN(c2ccc([N+](=O)[O-])cc2)CC1
-4,1%,-1%,0.3%,COC(=O)c1sc(=S)n(Cc2ccccc2)c1C
-13,-7%,-2%,0.6%,O=C(OCc1cc2ccccc2[nH]c1=O)c1cccc([N+](=O)[O-])c1
-2,-9%,-7%,-4.7%,Cc1cccc(N/N=C/c2ccc(O)c(O)c2O)c1
/,5%,/,-3.4%,CCOC(=O)c1ccccc1OC(=O)Oc1ccccc1C(=O)OCC
-4,0%,-9%,3.1%,O=C(c1ccccc1)N1CCN(C(=O)c2cc3ccccc3o2)CC1
-4,-3%,-36%,-1.8%,Cc1ccc(NC(=O)C(=O)NC2CCCCC2)cc1
5,-1%,0%,?,CCOC(=O)NC1(NCC(C)C)Oc2ccccc2O1
/,7%,/,-0.7%,O=C(c1nc[nH]c1C(=O)N1CCc2ccccc2C1)N1CCc2ccccc2C1
/,-1%,/,-0.7%,Cc1ccc(S(=O)(=O)N2CCC(C(=O)NCCC3=CCCCC3)CC2)c(C)c1
-8,0%,-23%,3.7%,COc1ccc(C(=O)NC(=S)N2CCCCC2)cc1
/,-7%,/,0.6%,CN(C(=O)c1cccc(NC(=O)Cc2ccc(NC(=O)C3CCN(C(=O)C4CCC4)CC3)cc2)c1)C1CCCCC1
/,-2%,-2%,-2.7%,COc1ccc([N+](=O)[O-])cc1NC(=O)CCN1CCOCC1
-8,-20%,-13%,?,CCc1ccc2[nH]c(=O)c(CN(Cc3nnnn3C3CCCC3)C3CCCCC3)cc2c1
/,3%,/,6.9%,O=C(O)C1CCCC[C@H]1C(=O)Nc1ncc([N+](=O)[O-])s1 (stereo partly drawn)
/,-4%,0%,0.4%,Cc1oc(-c2ccccc2F)nc1CS(=O)CC(=O)NC1CCCCC1 (stereo not drawn)
-15,2%,-16%,7.7%,COc1ccc(/C=N/NC(=O)c2ccccc2)cc1CN1CCN(c2ccc(F)cc2)CC1
/,5%,/,0.8%,Cc1noc(C)c1COC(=O)c1cc(S(=O)(=O)N2CCOCC2)ccc1Cl
-6,1%,-2%,4.8%,Cc1cc(C)nc(SCc2nnc(SCC(=O)OC3CCCCC3)o2)n1
-7,12%,-7%,-1.5%,CCc1cc(OCCOCCN(C)C)ccc1Cl
3,11%,5%,-1.8%,O=C(Nc1ccc(S(=O)(=O)NCc2cccnc2)cc1)c1ccco1
-2,-5%,-11%,1.4%,O=C(Cc1ccc([N+](=O)[O-])cc1)N1CCCc2ccccc21
/,4%,/,-0.3%,N#CC1C(=O)NC(=O)CC12CCCCC2 (stereo not drawn)
4,1%,0%,-1.6%,Cc1cnc(C(=O)N2CCCC(C(=O)c3ccc(C(F)(F)F)cc3)C2)cn1 (stereo not drawn)
-7,-13%,1%,0.1%,CCn1c(SCC(=O)OCc2ccccc2)nnc1-c1ccco1
-18,-4%,-3%,-2.6%,NS(=O)(=O)c1ccc(CCN=Cc2ccccc2O)cc1
-5,-22%,-8%,?,CCN(CC)c1ccc(/C=N/NS(=O)(=O)c2cccc([N+](=O)[O-])c2)cc1
/,-8%,-2%,2.1%,COc1ccc(C(C(=O)NCc2ccccc2)N(Cc2cccnc2)C(=O)c2snc(C(N)=O)c2N)cc1OC (stereo not drawn)
/,-14%,/,3.4%,Cc1ccc(S(=O)(=O)N2CCCC2)cc1C(=O)NCCOc1ccccc1
3,-10%,12%,-1.6%,Cc1cccc(NC(=O)CSc2nc3[nH]ncc3c(=O)[nH]2)c1C
/,3%,-9%,5.3%,COc1ccc(/C=C(/NC(=O)c2ccccc2)C(=O)N2CCC(C)CC2)cc1
-8,-4%,-67%,-0.2%,N/C(=N\OC(=O)C12CC3CC(CC(C3)C1)C2)c1ccccn1
/,-9%,8%,1.6%,Nc1cnn(C2OC(CO)C(O)C2O)c(=O)n1 (stereo not drawn)
-2,0%,0%,-0.7%,O=C(NC1CC2CCCC(C1)N2C(=O)N1CCCCC1)C1CCCCC1 (stereo not drawn)
/,-8%,-1%,0.2%,CCn1cc(S(=O)(=O)NCc2ccccc2Br)cn1
7,-4%,-3%,0.1%,O=[N+]([O-])c1ccc(N2CCNCC2)cc1Sc1nc2ccccc2[nH]1
/,-6%,/,-1.2%,CCCN(CC(=O)Nc1ccccc1C)C(=O)c1oc2ccc(OCC)cc2c1C
-10,0%,9%,3.0%,Cc1cc(CNC(=O)Cn2nc(C)c([N+](=O)[O-])c2C)c2ccccc2n1
/,1%,-1%,-2.3%,COc1ccccc1N1CCN(C(=O)NCc2ccc(Cl)cc2)CC1
/,1%,7%,-7.3%,COc1ccc(CCNC(=O)C2CCN(S(=O)(=O)c3ccc(C)cc3)CC2)cc1OC
3,9%,-1%,4.4%,CN(C)/C=C1\C(=O)NN=C1c1ccccc1
-3,19%,-20%,0.7%,CNC(=O)c1ccc(OCc2ccccc2)c(OC)c1
0,-8%,?,0.3%,CN1CC2=Cc3ccccc3OC23Oc2ccccc2C=C3C1
-5,-8%,-18%,-0.6%,CCOc1ccc(NC(=S)NNC(=S)Nc2cccc(C(F)(F)F)c2)cc1
5,15%,0%,-1.3%,C/C(=N\NC(=O)CCC(=O)O)c1c(-c2ccccc2)c2cc(Br)ccc2[nH]c1=O
3,/,-4%,/,COc1ccc2c(c1)nc1n2CN(CC2CCCO2)CN1Cc1ccccc1 (stereo not drawn)
8,10%,2%,-1.1%,CCC(C)NC(=O)COC(=O)Cc1sc(N)nc1-c1ccc(C)cc1 (stereo not drawn)

The listing continues:
GLA inh pH 4.5,Rango release inh,miR-21 FLuc,Rango complex inh,Compound
/,0%,0%,5.0%,CSCC[C@H](N)C(=O)N1CCC(C(=O)N[C@H](C(=O)NCc2ccccc2F)C(C)C)CC1
-5,?,1%,-0.6%,CCOC(=O)N1CCN(C(=O)COc2ccc(S(=O)(=O)NCC(C)C)cc2C)CC1
10,-8%,-20%,-1.4%,O=C(Nc1cccc(Br)c1)c1ccc2nc(N3C(=O)CCC3=O)sc2c1
-3,4%,2%,3.8%,Cc1ccc(C)c(NC(=O)CN(C)C(=O)[C@@H](NC(N)=O)C(C)C)c1
3,-3%,-35%,1.1%,CSc1nnc(-c2ccccc2Cl)o1
/,-11%,2%,1.5%,COc1cccc(N2C(=O)Nc3ccc(Br)cc3C2(O)C(=O)NCCCN(C)C)c1 (stereo not drawn)
/,-9%,-12%,0.6%,O=C(/C=C/c1ccc(Br)cc1)NCCCn1ccnc1
/,1%,/,4.6%,Cc1ccc(S(=O)C(c2ccccc2)c2ccccc2)cc1 (stereo not drawn)
7,1%,0%,-5.5%,Cc1nc(SCC(=O)Nc2cc(C)on2)c2c(=O)n(C)c(=O)n(C)c2n1
/,-6%,/,1.2%,CC[C@@H]1C=C(C(=O)O)[C@H](c2ccc(Cl)c(Cl)c2)N1S(=O)(=O)c1ccc(C)cc1
/,3%,/,4.5%,CN(C)S(=O)(=O)c1ccc(NC(=O)CSc2nnc(-c3ccco3)n2N)cc1
0,-16%,1%,-0.3%,Brc1ccc(-c2csc(N/N=C/c3cccnc3)n2)cc1
-4,1%,-2%,-2.2%,CCC(Sc1nc2cc3c(cc2c(=O)n1Cc1ccco1)OCO3)C(=O)Nc1ccccc1OC (stereo not drawn)
-1,-3%,-9%,-2.3%,CN(C(=O)COC(=O)c1ccc2c(c1)OCCO2)c1ccccc1
2[21.1 µM],-13%,-6%&-5%,0.4%,Cc1cc(C)c(NC(=O)Cn2cnc3c(oc4ccccc43)c2=O)c(C)c1
-8,1%,2%,1.4%,COc1cccc(NC(=O)COC(=O)Cc2ccc(Cl)cc2)c1
-2,2%,-23%,-0.2%,CC(=O)c1c(NCc2ccccc2)nc(=O)n(-c2ccccc2)c1C
-7,/,4%,/,C#CCOCCOCCOCCNc1nc(N2CCN(C(=O)[C@H](Cc3cc4ccccc4[nH]3)n3cc([C@@H](N)C(C)CC)nn3)CC2)nc(N2CCN(C(=O)[C@H](Cc3cc4ccccc4[nH]3)n3cc([C@@H](N)CC(C)C)nn3)CC2)n1 (stereo partly drawn)
5,-2%,0%,2.2%,CCCc1c(O)nc(SCCN(CCC)CCC)[nH]c1=O
/,1%,/,-1.3%,CCOC(=O)[C@H]1[C@H]2COc3cc(OC)ccc3[C@@H]2N2C(=O)N(c3cccc(F)c3)C(=O)[C@@]12C
/,-5%,-31%,6.2%,CCCCC(=O)Nc1ccc(NC(=O)c2ccco2)cn1
5,8%,-35%,1.6%,CCOC(=O)c1cnn(-c2cccc(Cl)c2)c1N
2,-11%,-56%,8.6%,Cc1cc(NC(=O)c2ccccc2F)on1
/,-11%,-5%,-0.8%,CSc1ncc(Cl)c(C(=O)Nc2cc(C)ccc2C)n1
/,23%,-68%,3.9%,Clc1cccc(OCc2nnc(-c3ccccc3Br)o2)c1
-1,-15%,-11%,?,Cc1ccc(Cn2c(SCC(=O)N/N=C/c3ccccc3OCC(=O)O)nc3ccccc32)cc1
11,-5%,-6%,1.3%,CCCCOCCCNC(=O)c1ccc2c(c1)OCO2
/,2%,/,-0.5%,COc1cccc(CN2CCNC(=O)C2CC(=O)N(C)C2CCCCC2)c1OC (stereo not drawn)
/,-11%,2%,2.4%,CC(OC(=O)CCOc1ccccc1)C(=O)Nc1ccc(Cl)cn1 (stereo not drawn)
9,10%,27%,3.6%,O=C(N/N=C/c1c[nH]c2ccccc12)C1COc2ccccc2O1 (stereo not drawn)
-13,-8%,-14%,2.9%,Cc1nc2ccccn2c1C(=O)N/N=C/c1ccc2c(c1)OCO2
/,3%,-2%,0.7%,COc1ccc(N(CC(=O)NCC2CCCO2)C(=O)CCC(=O)Nc2nccs2)c(OC)c1 (stereo not drawn)
-4,?,-2%,?,O=C1CCNc2cc3ccccc3cc21
0,?,0%,?,O=C(O)c1cccc2c1C(=O)c1cccc3snc-2c13

Source: PubChem BioAssay (National Center for Advancing Translational Sciences (NCATS))

An excerpt, so the mix of outcomes need not match the whole.
